Screening data (PubChem)
NOMO-1 viab – STK33 inhibitor candidate reducing NOMO-1 cell viability; AID 2330; NOMO-1 AML viability, CellTiter-Glo luminescence, 72 h; inhibition, % (concentration not given with the values); 37,000 compounds, 7.5% hits;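 active = most replicates above 80%; inconclusive = exactly half above 80%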;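 also: wells of about 30 µL received 25 nL stock; 0% = median of vehicle wells and 100% = reference inhibitor level; the first replicate is given; inactives centre near 10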
An asterisk follows results filed as active; ? = inconclusive. This is a subset; count on the stated rates, not on these rows.

SMILES | NOMO-1 viab
Cc1ccc(S(=O)(=O)N(C)C[C@@H]2Oc3c(NS(=O)(=O)c4cn(C)cn4)cccc3C(=O)N([C@@H](C)CO)C[C@@H]2C)cc1 | 28.1
Cc1noc(C)c1S(=O)(=O)Nc1ccc2c(c1)C(=O)N([C@@H](C)CO)C[C@H](C)[C@@H](CN(C)C(=O)Nc1ccccc1)O2 | 5.5
COc1ccc(NC(=O)Nc2ccc3c(c2)C(=O)N([C@H](C)CO)C[C@H](C)[C@@H](CN(C)S(C)(=O)=O)O3)cc1 | 3.8
Cc1ccc2c(=O)cc(-c3ccc(F)cc3)oc2c1 | 30.7
C[C@@H]1CN([C@@H](C)CO)C(=O)c2cccc(NC(=O)Nc3ccc(F)cc3)c2O[C@H]1CN(C)S(=O)(=O)c1cccs1 | 14.1
CN1C(=O)CC(n2c(CO)nc3ccccc32)C1=O (configuration not stated) | -10.2
O=C(Cn1cnc2ccccc2c1=O)Nc1ccc(S(=O)(=O)N2CCOCC2)cc1 | 11.7
CCOC(=O)c1sc(NC(=S)Nc2ccc3c(c2)OCCO3)c(C(=O)OCC)c1C | 4.7
COc1ccc(OC(C)C(=O)Nc2cc3oc4ccccc4c3cc2OC)cc1 (configuration not stated) | 17.1
CCOC(=O)c1c(NC(=O)CSc2cc(C)c3ccccc3n2)sc(C)c1C | 25.1
COc1ccc(NC(=O)Nc2cccc3c2O[C@H](CN(C)S(=O)(=O)c2cccs2)[C@H](C)CN([C@H](C)CO)C3=O)cc1 | 38.3
CNC[C@@H]1OCCCC[C@@H](C)Oc2ccc(NC(=O)Nc3ccc(C(F)(F)F)cc3)cc2C(=O)N([C@H](C)CO)C[C@@H]1C | 25.3
C[C@@H]1CN([C@H](C)CO)C(=O)Cc2cc(NC(=O)CCC(F)(F)F)ccc2O[C@H]1CN(C)Cc1ccc(C(=O)Nc2ccccc2N)cc1 | 44.0
COc1ccc(NC(=O)N(C)C[C@H]2OCCCC[C@@H](C)Oc3ccc(NC(=O)CCCN(C)C)cc3C(=O)N([C@H](C)CO)C[C@@H]2C)cc1 | 18.0
COc1ccc(OC)c(NC(=O)CSc2nc(C)cc(C)n2)c1 | 19.1
C[C@@H]1CN([C@@H](C)CO)C(=O)c2cc(NS(C)(=O)=O)ccc2O[C@@H]1CN(C)S(=O)(=O)c1ccc(F)cc1 | 15.2
C[C@@H]1CN([C@@H](C)CO)C(=O)c2cccc(NS(C)(=O)=O)c2O[C@@H]1CN(C)Cc1ccc(-c2ccccc2)cc1 | 7.8
COc1ccc(NC(=O)N(C)C[C@@H]2Oc3ccc(NS(=O)(=O)c4ccc(F)cc4)cc3C(=O)N([C@@H](C)CO)C[C@H]2C)cc1 | -22.6
Cn1c(=O)c2c(nc(NCc3cccnc3)n2Cc2cccc(Br)c2)n(C)c1=O | ?
C[C@H](CO)N1C[C@H](C)[C@@H](CN(C)S(=O)(=O)c2ccc(Cl)cc2)Oc2ccc(NC(=O)c3ccncc3)cc2C1=O | 4.6
Cc1noc(C)c1S(=O)(=O)N(C)C[C@@H]1Oc2ccc(NC(=O)Nc3cccc4ccccc34)cc2CC(=O)N([C@H](C)CO)C[C@H]1C | 35.9
C[C@H]1CN([C@@H](C)CO)C(=O)Cc2cc(NS(=O)(=O)c3cccs3)ccc2O[C@H]1CN(C)CC1CCCCC1 | 40.5
C[C@@H]1CCCCO[C@H](CN(C)S(=O)(=O)c2ccc(F)cc2)[C@@H](C)CN([C@H](C)CO)C(=O)c2cc(NC(=O)Nc3cccc4ccccc34)ccc2O1 | 6.4
CCOc1ccc(NC(=O)CC2C(=O)NCCN2C(=O)Nc2ccccc2)cc1 (configuration not stated) | -19.3
COc1ccc(NC(=O)N(C)C[C@H]2Oc3ccc(NC(=O)CCN4CCOCC4)cc3C(=O)N([C@H](C)CO)C[C@@H]2C)cc1 | 8.3

More results.
SMILES | NOMO-1 viab
C[C@@H]1CN([C@H](C)CO)C(=O)Cc2cc(NC(=O)CCN3CCOCC3)ccc2O[C@@H]1CN(C)S(C)(=O)=O | 5.7
Cc1c(O)c(C(=O)c2nn[nH]n2)c(=O)n(-c2ccccc2)c1-c1ccccc1 | 18.5
CC(C)NC(=O)N(C)C[C@H]1Oc2ccc(NS(=O)(=O)c3ccc(Cl)cc3)cc2C(=O)N([C@H](C)CO)C[C@@H]1C | -24.2
Cc1nc(-c2ccccc2O)n(CCN2CCOCC2)n1 | -2.4
C[C@@H]1CN([C@H](C)CO)C(=O)Cc2cc(NS(=O)(=O)c3ccc(Cl)cc3)ccc2O[C@H]1CN(C)Cc1ccc(Oc2ccccc2)cc1 | 112.0*
C[C@H]1CN([C@@H](C)CO)C(=O)c2cc(NC(=O)Cc3ccccc3)ccc2O[C@H]1CN(C)C(=O)Nc1cccc2ccccc12 | 32.8
C[C@H]1CN([C@@H](C)CO)C(=O)c2cccc(NC(=O)c3cnccn3)c2O[C@H]1CN(C)C(=O)Nc1ccccc1 | 5.4
C[C@H]1CN([C@@H](C)CO)C(=O)c2cc(NC(=O)CCCN(C)C)ccc2O[C@H]1CN(C)CC1CCCCC1 | -2.2
C[C@@H]1CN([C@H](C)CO)C(=O)Cc2cc(NC(=O)Cc3cn(C)c4ccccc34)ccc2O[C@H]1CN(C)S(C)(=O)=O | -2.5
Cc1onc(-c2ccccc2Cl)c1C1=NCCO1 | 3.7
Cc1ccc(-c2nc3ncccc3o2)cc1NC(=O)COc1ccc(C2CCCCC2)cc1 | 42.2
O=C(Nc1ccc(Cl)cc1)Nc1ccc(S(=O)(=O)Nc2ncccn2)cc1 | 10.2
Cc1noc(C)c1S(=O)(=O)Nc1ccc2c(c1)CC(=O)N([C@@H](C)CO)C[C@@H](C)[C@@H](CN(C)CC1CCCCC1)O2 | -2.1
COc1ccc(C)cc1NC(=O)NCc1ccco1 | 5.3
Cc1ccc(NC(=O)CC2NC3CCCCC3NC2=O)cc1Cl (configuration not stated) | -15.0
COC(=O)c1cccc(OCC(O)Cn2ccnc2)c1 (configuration not stated) | 18.5
C[C@@H]1CN([C@@H](C)CO)C(=O)c2cccc(NS(=O)(=O)c3ccccc3)c2O[C@@H]1CN(C)Cc1ccc(C(=O)Nc2ccccc2N)cc1 | 129.1*
COC(=O)COc1cccc(NC(=O)c2cc(OC)c(OC)c(OC)c2)c1 | 123.7*
CS(=O)(=O)N(CC(=O)NC1CC2CCC1C2)c1cc(Cl)cc(Cl)c1 (configuration not stated) | 11.0
COc1ccc(-c2cc(C)nc(SCC(=O)N3c4ccccc4Sc4ccccc43)n2)cc1 | -15.9
C[C@@H]1CN([C@H](C)CO)C(=O)c2cccc(NS(=O)(=O)c3ccc(F)cc3)c2O[C@@H]1CN(C)C(=O)Nc1ccc(C(F)(F)F)cc1 | 101.3*
CC(C)NC(=O)Nc1ccc2c(c1)C(=O)N([C@@H](C)CO)C[C@H](C)[C@@H](CN(C)S(=O)(=O)c1ccc(F)cc1)O2 | -1.6
C[C@@H]1CCCCO[C@H](CN(C)S(=O)(=O)c2ccc(Cl)cc2)[C@@H](C)CN([C@H](C)CO)C(=O)c2cc(NS(=O)(=O)c3ccccc3)ccc2O1 | 30.7
CCn1cc(C(C)NC(=S)Nc2ccc(OC)cc2OC)c(C)n1 (configuration not stated) | 19.6
COc1ccc(S(=O)(=O)N(C)C[C@H]2Oc3c(NC(=O)NC4CCCCC4)cccc3C(=O)N([C@H](C)CO)C[C@@H]2C)cc1 | 9.2

A draw from above in order of SMILES length, low to high:
SMILES | NOMO-1 viab
Cc1onc(-c2ccccc2Cl)c1C1=NCCO1 | 3.7
O=C(Nc1ccc(Cl)cc1)Nc1ccc(S(=O)(=O)Nc2ncccn2)cc1 | 10.2
Cc1c(O)c(C(=O)c2nn[nH]n2)c(=O)n(-c2ccccc2)c1-c1ccccc1 | 18.5
C[C@@H]1CCCCO[C@H](CN(C)S(=O)(=O)c2ccc(Cl)cc2)[C@@H](C)CN([C@H](C)CO)C(=O)c2cc(NS(=O)(=O)c3ccccc3)ccc2O1 | 30.7

Structures above that have a furan ring, fused or not, in the order listed:
SMILES | NOMO-1 viab
COc1ccc(OC(C)C(=O)Nc2cc3oc4ccccc4c3cc2OC)cc1 (configuration not stated) | 17.1
COc1ccc(C)cc1NC(=O)NCc1ccco1 | 5.3

The listing continues:
SMILES | NOMO-1 viab
C[C@@H]1CN([C@H](C)CO)C(=O)Cc2cc(NC(=O)C3CC3)ccc2O[C@@H]1CN(C)S(=O)(=O)c1cn(C)cn1 | -14.1
COc1ccc(S(=O)(=O)N(C)C[C@H]2Oc3c(NS(C)(=O)=O)cccc3C(=O)N([C@@H](C)CO)C[C@H]2C)cc1 | 7.3
C[C@@H]1CN([C@@H](C)CO)C(=O)c2cccc(NC(=O)c3nc4ccccc4s3)c2O[C@H]1CN(C)Cc1ccccc1 | 51.9
CCn1c(SCC(=O)Nc2cc(C(F)(F)F)ccc2Cl)nnc1-c1cccnc1 | 8.4
O=C(NCCOc1cccc(Oc2ccccc2)c1)c1cc(-n2cnnc2)ccc1Cl | 1.8
C[C@@H]1CN([C@H](C)CO)C(=O)Cc2cc(NC(=O)Nc3cccc4ccccc34)ccc2O[C@@H]1CN(C)Cc1ccc(C(=O)O)cc1 | 20.5
COC(=O)CNS(=O)(=O)c1ccccc1[N+](=O)[O-] | 112.3*
C[C@@H]1CN([C@H](C)CO)C(=O)c2cccc(NC(=O)c3cnccn3)c2O[C@@H]1CN(C)C(=O)NC1CCCCC1 | -3.8
Cc1noc(C)c1NC(=O)Nc1ccc2c(c1)C(=O)N([C@H](C)CO)C[C@H](C)[C@H](CN(C)CC1CCCCC1)O2 | 4.8
C[C@@H]1CCCCO[C@H](CN(C)Cc2ccncc2)[C@@H](C)CN([C@H](C)CO)C(=O)c2cc(NC(=O)c3ccccc3)ccc2O1 | -1.8
COc1ccc(CN(C)C[C@H]2Oc3ccc(NS(=O)(=O)c4cccs4)cc3CC(=O)N([C@@H](C)CO)C[C@H]2C)cc1 | -9.7
Cc1ccc(S(=O)(=O)Nc2cccc3c2O[C@H](CN(C)Cc2ccccc2)[C@H](C)CN([C@@H](C)CO)C3=O)cc1 | 26.5
COc1ccc(CCNc2nc(-c3cccc(NC(C)=O)c3)cs2)cc1OC | 18.4
C[C@H](CO)N1C[C@H](C)[C@@H](CN(C)C(=O)NC2CCCCC2)Oc2c(NC(=O)CCCCCC(=O)Nc3ccccc3N)cccc2C1=O | 15.2
C[C@H](CO)N1C[C@H](C)[C@@H](CN(C)C(=O)NC2CCCCC2)Oc2c(NC(=O)C3CCOCC3)cccc2C1=O | 7.3
CCCCCC1OC2=C(C(=O)N(OC)C2CSCC(O)C(=O)O)C(O)C1(C)O (configuration not stated) | 41.3
C[C@@H]1CN([C@@H](C)CO)C(=O)Cc2cc(NC(=O)Nc3ccc4c(c3)OCO4)ccc2O[C@@H]1CN(C)S(=O)(=O)c1ccccc1 | -6.2
N#Cc1c(NC(=O)CSc2nc(-c3ccccc3)cc(C(F)(F)F)n2)sc2c1CCCCC2 | 4.9
CC(C)NC(=O)N(C)C[C@@H]1Oc2c(NC(=O)CCCCCC(=O)Nc3ccccc3N)cccc2C(=O)N([C@@H](C)CO)C[C@H]1C | 22.6
COc1ccc(NC(=O)CN(C)S(=O)(=O)c2cc(Cl)ccc2Cl)cc1Cl | 24.9
C[C@H](CO)N1C[C@H](C)[C@H](CN(C)C(=O)Nc2ccc(F)cc2)Oc2ccc(NC(=O)Nc3cccc4ccccc34)cc2C1=O | 52.6
CC(C)(C)c1ccc(NC(=O)CCSc2nnnn2-c2ccccc2)cc1 | 22.8
CN(CC(=O)Nc1ccccc1[N+](=O)[O-])S(=O)(=O)c1ccccc1 | -12.6
CC(=O)n1nc(-c2ccc(Cl)cc2)nc1NCc1ccco1 | ?
Cc1ccc(S(=O)(=O)N(C)C[C@@H]2Oc3ccc(NC(=O)C4CC4)cc3C(=O)N([C@H](C)CO)C[C@H]2C)cc1 | 6.4

Remaining list, next part:
SMILES | NOMO-1 viab
C[C@H](CO)N1C[C@H](C)[C@H](CN(C)C(=O)Nc2ccc(C(F)(F)F)cc2)Oc2ccc(NS(=O)(=O)c3cn(C)cn3)cc2CC1=O | 17.0
COc1ccc(S(=O)(=O)Nc2ccc3c(c2)CC(=O)N([C@@H](C)CO)C[C@H](C)[C@@H](CN(C)S(=O)(=O)c2ccc(Cl)cc2)O3)cc1 | 4.7
CC(C)c1ccc(NC(=O)CSc2nnc(-c3ccc(Cl)c(Cl)c3)n2C)cc1 | -5.8
Cc1ccc(NC(=O)Cn2c([N+](=O)[O-])cnc2C)cc1C | 31.2
O=C(CC(C(=O)O)N1CCOCC1)Nc1ccc(Cl)cc1 (configuration not stated) | 23.8
O=C(Nc1sc2c(c1C(=O)NCc1cccnc1)CCCC2)c1ccc(Cl)cc1 | 7.0
COc1ccc(NC(=O)Nc2ccc3c(c2)C(=O)N([C@@H](C)CO)C[C@H](C)[C@H](CN(C)Cc2ccc(-c4ccccc4)cc2)O3)cc1 | 29.1
Cc1ccc(NC(=O)CCCn2cc([N+](=O)[O-])cn2)cc1C | -5.6
C[C@@H]1CN([C@H](C)CO)C(=O)c2cc(NS(C)(=O)=O)ccc2O[C@@H]1CN(C)C(=O)Nc1ccc(F)cc1 | 9.9
C[C@H](CO)N1C[C@H](C)[C@H](CN(C)C(=O)NC2CCCCC2)Oc2c(NC(=O)Nc3ccccc3)cccc2C1=O | ?
COc1cc(C)c(Br)cc1S(=O)(=O)NCc1ccco1 | -11.4
C[C@@H]1CN([C@@H](C)CO)C(=O)c2cccc(NC(=O)C3CCOCC3)c2O[C@H]1CN(C)C(=O)NC1CCCCC1 | 24.6
C[C@H](CO)N1C[C@H](C)[C@H](CN(C)S(=O)(=O)c2cccs2)Oc2c(NS(=O)(=O)c3ccc(F)cc3)cccc2C1=O | 10.0
COc1ccc([N+](=O)[O-])cc1NC(=O)COc1ccc(Br)cc1Cl | 10.7
